High-throughput results: PubChem BioAssay, National Center for Advancing Translational Sciences (NCATS)
Marburg entry inh: Marburg virus entry inhibition; Potency, µM (highest dose often 37.8 µM), inactives show at the highest dose activity change, negative = inhibition, hits mostly inhibitors; Marburg virus pseudotyped entry inhibition, cell reporter; control for the full effect not named in the record; about a third of the inactives were read at about 46 µM; 1.8% of 300,000 active; active = well fitted inhibition curve with a large enough effect; inconclusive = small, poorly fitted or top-dose-only effect, or effect the other way; inactive = flat fitted curve, though single readings scatter; tested in HEK293 cells; about a fifth of its hits are not listed in these tables; also: % is scaled to controls: 0 for no effect and ±100 for the full control effect; luciferase read-out
Cruzain noTriton: cruzain (T. cruzi) inhibition without detergent; Potency, µM, for inactives: max response, negative = inhibition, actives largely listed as inhibitors; purified cruzain, Z-FR-AMC fluorescence, no detergent; AID 1476; 2.3% of 200,000 active; P25779; active = well fitted curve in the direction sought with a large enough effect; inconclusive = small, poorly fitted or top-dose-only effect, or another doubt; inactive = no such curve, though single readings can be large; an effect the other way counts as inactive or inconclusive;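 also: plate controls were enzyme without inhibitor for no effect and buffer without enzyme for full effect; nearly all actives have a fitted effect of over 40% in size; top concentration of the series not given in the record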
Target sequence (P25779 123-467 limits assumed): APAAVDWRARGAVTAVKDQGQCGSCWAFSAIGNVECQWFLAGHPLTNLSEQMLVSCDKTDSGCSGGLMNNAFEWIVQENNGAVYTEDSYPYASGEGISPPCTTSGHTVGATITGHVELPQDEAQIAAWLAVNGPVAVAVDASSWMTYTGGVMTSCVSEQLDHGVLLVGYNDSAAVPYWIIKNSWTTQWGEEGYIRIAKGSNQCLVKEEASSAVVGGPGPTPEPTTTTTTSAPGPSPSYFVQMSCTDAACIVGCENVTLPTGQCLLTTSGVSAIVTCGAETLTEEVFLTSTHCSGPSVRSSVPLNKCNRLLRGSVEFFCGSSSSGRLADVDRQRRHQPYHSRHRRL
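Detergent-free condition (0.00005% Triton X-100) in acetate buffer pH 5.5 with DTT. 1.5 nM enzyme and compound were pre-mixed 15 min, then 2 uM Z-FR-AMC substrate added; reaction progress from fluorescence change between first and third reads (60 s).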
NS1 function inh: influenza NS1 inhibition. S. cerevisiae slowed by influenza A NS1, growth recovery by OD600. Potency, µM (top dose mostly 46.1 µM), for inactives: at the highest dose activity, positive = more growth. 0.4% of 270,000 active. AID 2326; also: actives are rising curves; nearly all actives have a fitted effect of over 50% in size
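A cell-based growth assay was used: compounds that relieve NS1-induced slow growth of budding yeast raise OD600. Assay medium was yeast nitrogen base with ammonium sulphate and -URA supplement, pH 6.0, with 2% galactose.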
2A StopGo: FMDV 2A StopGo reporter, luciferase signal | human cells with a luciferase reporter of 2A StopGo recoding; control for the full effect not named in the record | Potency, µM (top dose mostly 57.9 µM), without a hit: at the highest dose signal change, negative = less light | 1.2% of 410,000 active; active = well fitted falling curve with a large enough effect; inconclusive = small, poorly fitted or top-dose-only effect; inactive = no such curve, though single readings can be large or run the other way; tested in HEK293T cells; also: % is scaled to controls: 0 for no effect and ±100 for the full control effect; nearly all actives have a fitted effect of over 45% in size; luciferase light after 4 h
SARS PLpro yeast: inhibitors of SARS-CoV papain-like protease in yeast | S. cerevisiae expressing SARS-CoV PLpro, growth rescue; control for the full effect not named in the record | Potency, µM (series often up to 32.9 µM), for inactives: at the top dose activity, positive = growth rescue | 0.19% of 330,000 active | AID 485353; also: 0% is about no effect; nearly all actives have a fitted effect of over 55% in size; growth read by luminescence after 48 h
RE007 growth inh: less growth of the S. pombe RE007 Vpr strain | AID 651644 | 0.21% of 360,000 active | S. pombe RE007 Vpr strain, BacTiter-Glo ATP luminescence, 24 h; control for the full effect not named in the record | Potency, µM (series often up to 92.2 µM), without a hit: at the top dose activity change, negative = less growth; active = well fitted falling curve with a large enough effect; inconclusive = small, poorly fitted or top-dose-only effect; inactive = no such curve, though single readings can be large or run the other way;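 also: % is scaled to controls: 0 for no effect and ±100 for the full control effect; nearly all actives have a fitted effect of over 50% in size; the assay follows cell death caused by Vpr and the record does not say whether a fall means rescue or toxicity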
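Fission yeast RE007 carrying one integrated HIV-1 vpr copy, seeded at OD 0.01 in PMG+AL medium with 23 nL pinned compound. Grown 24 h at 30 degrees; viability read by BacTiter-Glo luminescence after 5 min.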
Lassa entry inh: blocks Lassa virus binding to or entry into cells | Lassa virus pseudotype entry inhibition, cell reporter; control for the full effect not named in the record | Potency, µM (top dose mostly 37.9 µM), for the others: at the top dose activity change, negative = inhibition, actives largely listed as inhibitors | 1.2% of 300,000 active | AID 540256; active means well fitted inhibition curve with a large enough effect; inconclusive means small, poorly fitted or top-dose-only effect, or effect the other way; inactive means flat fitted curve, though single readings scatter; tested in HEK293 cells; also: % is scaled to controls: 0 for no effect and ±100 for the full control effect; nearly all actives have a fitted effect of over 50% in size; luciferase read-out
Cruzain inh Det: blocks cruzain activity in presence of Triton detergent. P25779. purified cruzain, Z-FR-AMC fluorescence, 0.01% Triton. Potency, µM, without a hit: max response, negative = inhibition, most hits filed as inhibitors. 0.43% of 200,000 active; active = well fitted curve in the direction sought with a large enough effect; inconclusive = small, poorly fitted or top-dose-only effect, or another doubt; inactive = no such curve, though single readings can be large; an effect the other way counts as inactive or inconclusive;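 also: plate controls were neutral wells for no effect and buffer without enzyme for full effect; nearly all actives have a fitted effect of over 40% in size; top concentration of the series not given in the record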
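Purified cruzain (1.5 nM final) was preincubated with compounds for 15 min at room temperature in 100 mM sodium acetate pH 5.5, 5 mM DTT, 0.01% Triton X-100. Reaction started with 2 uM Z-FR-AMC; AMC fluorescence change over 60 s gave activity.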
Active calls of the source: *; u = inconclusive; x = not tested or not shown; & = joins results of further samples; [ ] = another dose, or the depositor's remark. Unless noted, calls follow the shape of the dose curve; as a rule, active means well fitted rising curve with a large enough effect; inconclusive means small, poorly fitted or top-dose-only effect; inactive means no such curve, though single readings can be large or run the other way. Potency is read from the fitted curve at half-maximal effect.

SMILES	Marburg entry inh	Cruzain noTriton	NS1 function inh	2A StopGo	SARS PLpro yeast	RE007 growth inh	Lassa entry inh	Cruzain inh Det
Cc1ccc(NC(=O)CNC(=O)c2cccc(Cl)c2)nc1	14%	x	x	87%[activator]	-4%	3%	23%	x
CSc1ccc(CN(C)CC(=O)Nc2ccccc2Br)cc1	-19%	-5%	-5%	-30%	23%	3%	-12%	-2.6%
O=C(CCC(=O)OCc1cccc([N+](=O)[O-])c1)Nc1ccccc1Cl	28%[46.1 µM]	x	3%	1%	-1%	-4%	1%	x
CNS(=O)(=O)c1cn(CC(=O)Nc2ccc(C)cc2C)cc1S(=O)(=O)NC	x	18%	x	-3%	x	x	9%[46.1 µM]	0.6%
COc1cccc(C(=O)N/N=C(\CC(C)C)c2ccccc2)c1	-19%	-6%	-15%	3%	-20%	7%	u	-3.1%
O=P(O)(CCc1ccccc1)CN1CCCCC1	2%	-29%	-5%	-13%	0%	1%	u	5.1%
COc1ccc(S(=O)(=O)N2CCOCC2)cc1NC(=O)CSc1nnc2n1CCCCC2	25%	x	x	-1%	6%	5%	10%	x
O=C(c1cc(-c2ccc(Cl)s2)nc2ccccc12)N1CCOCC1	u	x	x	-9%	6%	15%	u	x
O=C(O)CNC1c2ccccc2CSc2ccccc21 (stereo not given)	8%[46.1 µM]	x	x	0%	x	-11%	-19%[46.1 µM]	x
Cc1cccc(N(C(=O)c2csnn2)C(C(=O)NCc2ccccc2)c2ccncc2)c1 (stereo not given)	2%[46.1 µM]	x	2%	0%	-2%	-5%	16%[46.1 µM]	x
O=C(c1cc2c(s1)-c1ccccc1OC2)N1CCCC1	1%	u	-219%	32%[activator]	-36%	u	x	u
COc1ccc(OC)c(C2Nc3nc4ccccc4n3C(C)=C2C(=O)Nc2ccc(C)cc2C)c1 (stereo not given)	u	-6%	u	-1%	9%	-3%	u	-22%
CCOc1ccc(N(CC(=O)Nc2ccccc2C(=O)NC(C)CC)S(C)(=O)=O)cc1 (stereo not given)	-18%	u	-6%	-21%	3%	10%	-1%	-3.4%
COc1ccc(-c2csc3ncnc(Nc4ccc(OC)cc4OC)c23)cc1	x	12%	x	-28%	x	x	-9%[46.1 µM]	-3.1%
CCOC(=O)C1(Cc2cccc(OC)c2)CCN(CC(O)CO)CC1 (stereo not given)	x	x	3%	-18%	0%	-14%	x	x
COc1ccc(C)cc1NC(=O)c1cnc2ccc(C)cn2c1=O	-8%[46.1 µM]	-3%	x	6%	x	x	x	-0.4%
COc1ccc(Cl)cc1-c1nc(-c2ccc(NC(=O)c3ccncc3)cc2)no1	-12%	x	-47%	-20%	x	-11%	-17%	x
CCOc1cc(C=O)ccc1OCC(=O)N1CCCC1	x	x	6%	0%	-1%	10%	x	x
C=CCNC(=O)CSc1nnc(C(CC)N(C)C)n1C1CCCCC1 (stereo not given)	x	x	2%	-3%	-1%	-3%	x	x
COC(=O)c1ccc(C(=O)OC)c(NC(=S)N2CCN(c3cccc(Cl)c3)CC2)c1	u	u	11%	-16%	-19%	1%	-12%	-4.2%
COc1ccc(N2CCN(CCCN)CC2)cc1	u	x	8%	-19%	x	23%	u	x
Cc1ccc(NC(=O)c2cc3ccccc3cc2O)cc1	x	x	-31%	33%[activator]	-4%	-8%	x	x
CCOC(=O)c1c(NC(=O)c2cc(=O)c3cc(C)ccc3o2)sc2c1CCCC2	2%[46.1 µM]	-7%	x	-26%	x	x	u	-1.6%
COc1cccc(OCC(=O)O/N=C(\N)c2ccc(OC)c(OC)c2)c1	17%	8%	1%	u	4%	-16%	-9%	-0.6%
COc1ccc(Nc2ncnc3c2oc2ccccc23)cc1	u	-3%	-13%	4%	-2%	18%	u	-10%
Cc1ccc(NC(=S)N/N=C/c2ccc(OCCC(C)C)cc2)c(C)c1	-23%	-14%	28%	-22%	4%	-2%	-19%	-5.4%
N=C1c2ccccc2CN1NC(=O)c1cccc(S(=O)(=O)N2CCCC2)c1	x	-9%	-4%	-2%	0%	-2%	x	-0.1%
CCC(C(=O)Nc1ccc(C(C)C)cc1)c1ccccc1 (stereo not given)	-28%[46.1 µM]	x	-2%	12%	0%	14%	6%	x
O=C(c1ccc(CS(=O)(=O)c2c(Cl)cccc2Cl)o1)N1CCN(c2ccccn2)CC1	x	-12%	-19%	u	-1%	1%	x	-5.2%
COc1ccc(C)cc1S(=O)(=O)N(C)CC(=O)N1CCC(C(N)=O)CC1	-15%[46.1 µM]	x	2%	20%	1%	-6%	3%	x
COc1ccccc1C(NC(C)=O)c1c(O)ccc2ccc(O)cc12 (stereo not given)	-7%[46.1 µM]	x	x	-6%	x	1%	-2%	x
COc1ccc(N(C)S(=O)(=O)c2c(C)[nH]c(=O)[nH]c2=O)cc1	14%	6%	0%	0%	0%	26%	9%	0.9%
O=C(OCc1c(F)cccc1Cl)c1cnccn1	-2%	-1%	-9%	9%	-7%	-4%	-1%	1.8%
CC(=O)O[C@@]12CO[C@@H]1C[C@@H](O)[C@@]1(C)C(=O)[C@H](O)C3=C(C)[C@@H](OC(=O)[C@H](O)[C@@H](NC(=O)c4ccccc4)c4ccccc4)C[C@@](O)([C@@H](OC(=O)c4ccccc4)C12)C3(C)C (stereo not given in full)	x	x	-10%	-23%	u	-14%	x	x
CCN(CC)S(=O)(=O)c1ccc(/C=C/C(=O)OCC(=O)N(C)C)cc1	18%[46.1 µM]	x	x	-5%	2%	-5%	x	x
CCOC(=O)C1CCN(C(=O)CN2c3ccc(CC)cc3-c3ccccc3S2(=O)=O)CC1	27%[46.1 µM]	u	x	43%[activator]	x	x	23%[46.1 µM]	-0.6%
O=C1c2ccccc2C(=O)c2c(Nc3ccc(CCO)cc3)ccc(O)c21	5%	x	5%	-22%	0%	x	x	x
CC(=O)Nc1ccc(NC2=CC(=O)c3ccccc3C2=O)cc1	u	x	1%	-1%	0%	-3%	1%[46.1 µM]	x
COc1ccc(S(=O)(=O)Nc2cccc(SC)c2)cc1C(=O)N1CCOCC1	-10%[46.1 µM]	x	u	21%	3%	-8%	-1%	x
Cc1cccc(NC(=S)NCC(c2cccnc2)N2CCOCC2)c1 (stereo not given)	-1%	10%	5%	-17%	5%	14%	-22%	6.5%
COc1ccc(-c2nc(N)ncc2-c2ccc(Cl)cc2)c(O)c1	x	x	7%	u	1%	-4%	x	x
COc1ccc2c(C)c(Cl)c(=O)oc2c1	4%	u	-1%	-21%	1%	-22%	-5%	-12%
COc1ccc(N2CCN(C(=O)C3CCCN(S(=O)(=O)c4ccc5c(c4)oc(=O)n5C)C3)CC2)cc1 (stereo not given)	-14%&2%[46.1 µM]	-10%	-3%	u	-1%	-6%	8%&-6%[46.1 µM]	0.6%
Cn1c(Cn2c(=O)sc3ccccc32)nnc1SCC(=O)NCc1ccccc1	x	-2%	12%	40%[activator]	18%	-15%	x	-3.8%
CCc1ccc(C2CC(=O)c3c([nH]c(C(=O)OC4CCC(C)CC4)c3C)C2)cc1 (stereo not given)	11%[46.1 µM]	-12%	x	-19%	x	x	-2%[46.1 µM]	-1.9%
O=C(/C=C\c1ccc2c(c1)OCO2)NC1CC(=O)N(c2ccc(Cl)cc2)C1 (stereo not given)	x	-9%	x	-15%	x	x	6%[46.1 µM]	-1.5%
Cc1cc(NC(=O)c2cccc(S(=O)(=O)N3CC(c4ccccc4)CC3=O)c2)no1 (stereo not given)	x	5%	-107%	-23%	-9%	-2%	x	0.7%
O=C(NCC1CCCO1)C1CCCN1C(=O)NC1CCCCC1 (stereo not given)	5%	-5%	1%	-3%	8%	1%	2%	3.4%
Cc1cc(C)c2nc(SCCc3ccccc3)nc(C)c2c1	0%	-13%	-1%	0%	1%	-12%	7%	1.6%
CCCc1cc(=O)[nH]c(SCC(=O)Nc2sc3c(c2C#N)CCCC3)n1	-8%[46.1 µM]	x	9%	-16%	4%	11%	27%[46.1 µM]	x
COc1ccc(CCNC(=O)C2CCN(C(=O)c3ccc([N+](=O)[O-])cc3)CC2)cc1	2%	x	0%	0%	16%	9%	11%	x
C/C(=C/c1ccccc1)C(=O)N1CCN(c2ccccc2)CC1	x	x	-10%	30%[activator]	0%	-20%	x	x
O=C(Cc1ccccc1)Nc1ccc2c(c1)OC1(CCCC1)O2	u	x	x	51%[activator]	-13%	25%	-16%	x
CCCn1c(SCC(=O)N2CCN(CC)CC2)nc2c1c(=O)n(C)c(=O)n2C	0%[46.1 µM]	x	-1%	4%	1%	-12%	2%[46.1 µM]	x
CC(Nc1ncnc2c1cnn2-c1cccc(Cl)c1)c1ccccc1 (stereo not given)	x	-11%	x	12%	x	x	16%[46.1 µM]	0.5%
CCN(CC(=O)Nc1ccc(C)c(F)c1)CC(=O)NC(C)(C)C	-25%[46.1 µM]	x	x	2%	2%	6%	6%[46.1 µM]	x
O=C(NCC1COCCO1)c1cc(COc2ccc(F)cc2F)on1 (stereo not given)	2%	x	9%	-19%	0%	-22%	17%	x
COc1ccc(OC)c(/C(O)=C/C(=O)C(=O)Nc2cc(C)cc(C)c2)c1	-18%	-11%	15%	-12%	5%	-16%	3%	-7.7%
CC(C)CN1CCNC(=O)C1CC(=O)NCCc1ccc(C(F)(F)F)cc1 (stereo not given)	-10%[46.1 µM]	x	2%	8%	0%	-1%	-9%[46.1 µM]	x
Cc1csc(SCC(=O)Nc2nc3ccccc3s2)n1	8%	-5%	-95%	-10%	-7%	-11%	0%	-3.5%
Cc1ccccc1Nc1nc(N)nc(COC(=O)[C@@H](NC(=O)c2c(F)cccc2F)C(C)C)n1	17%	x	x	-28%	3%	8%	5%	x
CCCCOC(=O)c1cc(=O)[nH]c(=O)[nH]1	x	x	0%	0%	4%	5%	x	x
Cc1c(-c2ccc(F)cc2)nc(N)c(C#N)c1-c1cccs1	-16%	-1%	-5%	-8%	9%	-2%	-23%	-14%
